Vaccinia Venus – qHTS for Stage-Specific Inhibitors of Vaccinia Orthopoxvirus: Venus Reporter Primary qHTS | Vaccinia virus Venus reporter expression, fluorescence | Potency, µM (titrated, usually from 36.5 µM), inactives show at the highest dose activity change, negative = inhibition, usual class: inhibitors | 330,000 compounds, 0.46% hits; active means well fitted inhibition curve with a large enough effect; inconclusive means small, poorly fitted or top-dose-only effect; inactive means no such curve, though single readings can be large or run the other way; tested in A549 cells; further: nearly all actives have a fitted effect of over 30% in size; inactives centre near -10
VACV mCherry inh – qHTS for Stage-Specific Inhibitors of Vaccinia Orthopoxvirus: mCherry Reporter Primary qHTS; Vaccinia virus mCherry reporter infection, fluorescence; about a quarter of the inactives have no number; Potency, µM (top dose mostly 36.5 µM), without a hit: top-dose activity change, negative = inhibition, actives largely listed as inhibitors; 310,000 compounds, 0.63% hits; AID 720579, 2013; active = well fitted inhibition curve with a large enough effect; inconclusive = small, poorly fitted or top-dose-only effect; inactive = no such curve, though single readings can be large or run the other way; tested in A549 cells; further: nearly all actives have a fitted effect of over 35% in size; inactives centre near -10
Starred values were filed as active, the others as inactive; i = inactive; ? = inconclusive; nt = no result given; & = joins results of further samples; [ ] = another dose, or the depositor's remark. On the % scale 0 is the no-effect control and ±100 the full control effect; potency means the concentration at half of the fitted maximal effect. Random draw from the library. About 0.88% of those tested had a hit in this group.

no.	molecule	Vaccinia Venus	VACV mCherry inh
1	COC(=O)C1=C(c2ccc(OCc3ccccc3)cc2)C[C@@H]2CC[C@H]1N2C(=O)NCc1cccc(OC)c1	?	?
2	Cc1ccc(S(=O)(=O)N2CCCCC2)cc1C(=O)OC(C)C(=O)NC1CCCCC1C (centres undefined)	-22%	i
3	COc1ccc(Nc2c3c(nc4ccccc24)CCC3)c(OC)c1	?	?
4	COCCNc1ncnc2c1ncn2[C@H]1CN(Cc2cc(OC)c(OC)c(OC)c2)C[C@@H](CO)O1	-4%	-16%
5	CC1CC(C)CN(C2CCCCC2NS(=O)(=O)c2ccc(Cl)cc2)C1 (centres undefined)	1%	i
6	Cc1ccc(C)c(OCCC(=O)OCC(=O)N2c3ccccc3NC(=O)C2(C)C)c1	-12%	-19%
7	CC(=O)NC(C)Cc1ccccc1 (centres undefined)	-8%	nt
8	CC12CCC(C(=O)Nc3c(Cl)cccc3Cl)(C(Br)C1=O)C2(C)C (centres undefined)	-9%	-8%
9	Cc1cc(C)cc(NS(=O)(=O)CCCS(=O)(=O)Nc2cc(C)cc(C)c2)c1	?	-17%
10	Cc1ccc2oc(-c3cccc(NC(=O)c4sc5c([N+](=O)[O-])cccc5c4Cl)c3)nc2c1	-7%	-12%
11	CCOc1ccc(C(=O)NCCc2cnc[nH]2)cc1	-13%	i
12	CCc1ccc(NC(=O)CSc2nnc(C3CC3)n2CC2CCCO2)cc1 (centres undefined)	-18%	-19%
13	O=C(c1cnn(-c2ccc(F)cc2)c1-n1cccc1)N1CCN(c2ccccc2)CC1	9%	3%
14	Nc1c(C(=O)Nc2ccc(Cl)cc2F)sc2nc(-c3cccs3)ccc12	-7%	-7%
15	CCOc1cc(S(=O)(=O)NCc2ccccn2)ccc1Cl	-7%	-18%
16	C[C@@H]1NS(=O)(=O)[C@H]2C[C@@H]3C=C[C@]2(O3)[C@H]1OC(=O)c1ccc(C(C)(C)C)cc1	-27%	-2%
17	Cc1ccc(NC(=O)c2sc3ccccc3c2Cl)cc1	-19%	-16%
18	Cc1cc(S(=O)(=O)N(Cc2ccc3c(c2)OCO3)CC2CCCO2)ccc1-n1cnnn1 (centres undefined)	-19%	nt
19	O=C(Nc1nccs1)c1sc2cc(Cl)ccc2c1Cl	-15%	-13%
20	Cc1c(CC(=O)NCC(=O)N[C@H](Cc2ccccc2)C(=O)O)c(=O)oc2cc(O)ccc12	-2%	-2%
21	Cc1noc(C)c1CSCC(=O)Nc1cc(S(=O)(=O)N2CCCCC2)ccc1OC(C)C	-13%	?
22	O=C(Nc1cccc([N+](=O)[O-])c1)c1cc(S(=O)(=O)N2CCOCC2)cs1	-8%	i
23	Cn1c(=NC(=O)C2CC2)sc2cccc(F)c21	-21%	7%
24	Cc1cccc(-n2ccnc2SCC(=O)Nc2ccc3c(c2)OCCO3)c1	-21%	nt
25	O=C(N/N=C/C=C\c1ccccc1[N+](=O)[O-])c1ccccn1	2%	0%
26	COC(=O)c1cccc(NC(=O)Nc2ccc(Cl)c(Cl)c2)c1	?	?
27	Cn1c(=O)cc(SCC(=O)NCc2ccc(F)cc2)c2ccccc21	-17%	-19%
28	C=CC(C)C(C(=O)c1ccccc1)N(C)C (centres undefined)	0%	i
29	O=C1CCC/C(=N\NC(=O)NC2CCCCC2)C1	-11%	i
30	O=C(Cn1c(=O)n(-c2cccc(Cl)c2)c(=O)c2sc3ccccc3c21)NC1CCCCC1	-28%	-24%
31	O=C(N/C=C\c1ccccc1)NCc1ccc(Cl)cc1Cl	-6%	-13%
32	COc1ccc(S(=O)(=O)N2CCC(NC(=O)C3CCCCC3)CC2)cc1	-3%	0%

Some of the entries so far, as labelled records:
(29) O=C1CCC/C(=N\NC(=O)NC2CCCCC2)C1
  Vaccinia Venus = -11%; VACV mCherry inh = i
(30) O=C(Cn1c(=O)n(-c2cccc(Cl)c2)c(=O)c2sc3ccccc3c21)NC1CCCCC1
  Vaccinia Venus = -28%; VACV mCherry inh = -24%

More structures
no.	molecule	Vaccinia Venus	VACV mCherry inh
33	Nc1nc2ccccc2cc1C(=O)NCc1ccc(-c2ccccc2)cc1	?	?
34	C=CCSc1nc2ccccc2c(=O)[nH]1	-4%	-15%
35	CCc1cccc(C)c1NC(=O)CCCn1c(C)c2cnn(-c3ccccc3)c(=O)c2c1C	-23%	-14%
36	O=C(Nc1ccc(F)cc1)N1CCN(CCc2ccccc2)CC1	-3%	i
37	CN(C)c1ccc(-c2nc(NC3CCNCC3)c3ccccc3n2)cc1	11µM*	11µM*
38	COc1ccc(NC(=O)C2CCN(C3=NS(=O)(=O)C(c4ccc(C)c(C)c4)=C3C)CC2)cc1OC	-2%	-1%
39	COc1ccc(CNCCNC(=O)c2cccs2)cc1OC	0%	i
40	COC(=O)c1ccc(NC(=O)CSc2nccn2Cc2ccc(Cl)cc2)cc1	-7%	i
41	Cc1cc(C(=O)COC(=O)C2=NNC(=O)CC2)c(C)n1CCc1ccccc1	-13%	i
42	C=CCOC(=O)C1=C[C@@H](c2ccc3c(c2)OCO3)C[C@@H](OCc2ccc(CO)cc2)O1	-11%	?
43	Cn1ncc2c(O/N=C(\N)c3ccc(C(C)(C)C)cc3)ncnc21	-12%[7.34 µM]	i[7.34 µM]
44	CCCOC(=O)C1=C(C)NC(=O)NC1c1ccc(Br)s1 (centres undefined)	-13%	-17%
45	CCCCOc1ccc(C(=O)N2CCC(c3nc4ccccc4o3)CC2)cc1	-9%	-5%
46	Cc1ccc2nc(COc3ccccc3NC(=O)c3ccc(F)cc3)cc(=O)n2c1	-15%	-16%
47	CN1CCN(C(=O)N2c3ccccc3C=Cc3ccccc32)CC1	-16%	-1%
48	O=c1oc2ccccc2n1CSC1=NCCS1	?	nt
49	Cc1ccc(CN2CCNC(=O)C2CC(=O)NCCCn2nnc3ccccc32)cc1 (centres undefined)	-8%	-7%
50	Cn1cccc1-c1cc2n(n1)CCC(=O)N2CCCC(=O)NCc1cccc(Cl)c1	13%	-1%
51	COc1ccc(N2CCN(C(c3ccccc3)c3sc4nc(C)nn4c3O)CC2)cc1 (centres undefined)	?	-28%
52	CN(CCC(=O)c1ccccc1)CCC(=O)c1ccccc1	-10%	i
53	Cc1cc(=O)oc2cc(OCCSCCN3CCOCC3)ccc12	-30%	nt
54	COc1ccccc1C(NC(=O)C1CCN(CCOc2ccccc2)CC1)c1ccccn1 (centres undefined)	-21%	-11%
55	CCOC(=O)c1c(NC(=O)COc2cccc(C(F)(F)F)c2)sc2c1CCC(C)C2 (centres undefined)	16%	11%
56	CCn1c(N)c(C(=O)N2CCOCC2)sc1=S	-8%	nt
57	COC(=O)[C@H]1C[C@@H]1[C@H](NC(=O)c1ccccc1)c1ccccc1	6%	-5%
58	C/C(Cc1ccccc1)=N\NC(=O)CNC(=O)c1cccc(F)c1	-5%	i
59	Cc1ccc2c(NCc3ccco3)nc(NC(C)C)nc2c1	-14%	-16%
60	CCOP(=O)(OCC)c1nc(-c2ccc(Cl)cc2Cl)oc1N1CCCCC1	-24%	-1%
61	CC(C)NC(=O)c1cc(C2CCCCN2S(=O)(=O)c2ccc(F)cc2F)on1 (centres undefined)	0%	i
62	CC[C@@]1(C(=O)OC)N[C@H](CN(C)C(=O)COC)[C@@H]2C(=O)N(C)C(=O)[C@@H]21	-5%	-13%
63	Nc1ccccc1Sc1nc2ccccc2[nH]1	?	?
64	Cc1csc(=O)n1CCC(=O)OCC(=O)Nc1ccc(F)c(F)c1F	-8%	i

(65) O=Cc1ccccc1-n1cccn1
(66) O=C(CCC(=O)c1cccs1)Nc1ccccc1F
(67) COc1cccc(C(=O)Nc2ccccc2C(=O)OCc2cc(=O)n3nc(C)sc3n2)c1
(68) Nc1ccncc1N
(69) Nc1ccc2[nH]c(=S)sc2c1
(70) Cc1occc1C(=O)NNC(=O)Nc1ccc(F)cc1F
(71) CN(C[C@H](Cc1ccccc1)N(C[C@H](Cc1ccccc1)N(CCC(C)(C)C)N=O)N=O)N=O
(72) COc1cc2c(NC3CCN(C)CC3)nc(N3CCCN(C)CC3)nc2cc1O
Assay by compound,65,66,67,68,69,70,71,72
Vaccinia Venus,-7%,-7%,-21%,-3%,-2%,-11%,-29%,-13%
VACV mCherry inh,i,-7%,?,-3%,?,i,i,i

Exported field by field: three of the compounds above
69. Nc1ccc2[nH]c(=S)sc2c1
  Vaccinia Venus: -2%	VACV mCherry inh: ?
70. Cc1occc1C(=O)NNC(=O)Nc1ccc(F)cc1F
  Vaccinia Venus: -11%	VACV mCherry inh: i
71. CN(C[C@H](Cc1ccccc1)N(C[C@H](Cc1ccccc1)N(CCC(C)(C)C)N=O)N=O)N=O
  Vaccinia Venus: -29%	VACV mCherry inh: i

(list continues)
(73) COc1ccc(N(CC(=O)NCc2ccc(F)cc2)S(=O)(=O)c2c(C)noc2C)cc1
(74) O=S(=O)(O)c1nc2ccccc2n1Cc1ccccc1
(75) CN(Cc1ccccc1)c1ccc(S(=O)(=O)N2CCC(C(=O)O)CC2)cc1[N+](=O)[O-]
(76) Cc1ccc(-c2ccnc(=S)[nH]2)cc1
(77) C=CCn1c(CCNC(=O)c2ccccc2F)nnc1SCC(=O)Nc1nc(C)cs1
(78) Cc1ccc(-n2nc3c(=O)n(CC(=O)NCCc4cccs4)nc(C)c3c2C)cc1
(79) Cc1cccc(OC(C)C(=O)N/N=C\c2ccncc2)c1 (centres undefined)
(80) CCCCC(=O)Nc1ccc(C(=O)NNC(=O)c2ccc(C)c(Br)c2)cc1
Assay by compound,73,74,75,76,77,78,79,80
Vaccinia Venus,-10%&7%,-2%,-15%,-3%,-12%,?,0%,10%
VACV mCherry inh,-1%,-10%,i,-11%,nt,?,i,-5%

3 of the compounds above, as labelled records.
[80] CCCCC(=O)Nc1ccc(C(=O)NNC(=O)c2ccc(C)c(Br)c2)cc1
  Vaccinia Venus = 10%
  VACV mCherry inh = -5%

[78] Cc1ccc(-n2nc3c(=O)n(CC(=O)NCCc4cccs4)nc(C)c3c2C)cc1
  Vaccinia Venus = ?
  VACV mCherry inh = ?

[73] COc1ccc(N(CC(=O)NCc2ccc(F)cc2)S(=O)(=O)c2c(C)noc2C)cc1
  Vaccinia Venus = -10%&7%
  VACV mCherry inh = -1%

(further entries)
(81) CCC(=O)N1CCc2cc(S(=O)(=O)NCCN3CCCCC3CC)ccc21 (centres undefined)
(82) C=CCOc1cccc(C2/C(=C(/O)c3ccc(C)cc3)C(=O)C(=O)N2CCN2CCOCC2)c1 (centres undefined)
(83) CC[C@]12c3[nH]c4cc(-c5ccco5)ccc4c3CCN1C(=O)[C@@H](CC(=O)NCCCOC)C[C@@H]2C(=O)N1CCN(C(=O)C2CC2)CC1
(84) CC(=O)Nc1nc(-c2ccc3c(c2)CC(C)N3C(=O)C2CC2)c(C)s1 (centres undefined)
(85) Cc1ccc(C(=O)NCC(=O)Nc2ccc3c(c2)CCC3)cc1
(86) COc1ccc(C(=O)Nc2ccc(C(=O)OCC(=O)c3cccc4ccccc34)cc2)cc1
(87) COc1ccccc1N1C(=S)N=C(Nc2c(C)cccc2C)C12CCCC2
(88) NC(=S)c1ccc(C(N)=S)o1
Assay by compound,81,82,83,84,85,86,87,88
Vaccinia Venus,-5%,-15%,-13%,-11%,11%,-5%,13%,-15%
VACV mCherry inh,-21%,-26%,i,39%[activator],i,-6%,2%,i

(89) O=[N+]([O-])c1ccc(CS(=O)Cc2ccccc2)cc1 (centres undefined)
(90) COc1ccc(-c2cn3cccnc3n2)cc1NC(=O)Nc1cc(C)ccc1C
(91) O=C(O)C1Sc2[nH]c(=O)sc2C2c3cc(Br)ccc3OC(=O)C12 (centres undefined)
(92) NS(=O)(=O)c1ccc(N2N=C(c3ccccc3)CC2c2ccc(Br)cc2)cc1 (centres undefined)
(93) Cc1cc(=O)n2nc(N3CCCC3C(=O)NCCCN3CC(C)CC(C)C3)sc2n1 (centres undefined)
(94) COc1ccc(CCNC(=O)c2cc(-c3ccc(C)c(C)c3)nc3ccccc23)cc1OC
(95) CC1CC1c1ccc(/C=C(\C#N)C(=O)Nc2ccc(Cl)cc2Cl)o1 (centres undefined)
(96) CC12CN(NC(=O)c3ccccc3F)C3(C#N)CC1CCC23C (centres undefined)
Assay by compound,89,90,91,92,93,94,95,96
Vaccinia Venus,-10%,-29%,43%[activator],-18%,-16%,-5%,3%,-18%
VACV mCherry inh,i,-25%,i,12%,nt,-10%,-20%,-25%

(97) Cc1nc(C)c(-c2ccc(SCC(=O)Nc3ccc(C)c(Cl)c3)nn2)s1
(98) CCOC1=C2[C@@H](CN(S(=O)(=O)c3ccc(C)cc3)[C@H]2c2ccccc2Cl)[C@H]2C(=O)N(C)C(=O)[C@H]2C1
(99) Oc1ccc(Br)cc1C=Nc1ccc2[nH]ncc2c1
(100) CCOc1ccc(-c2n[nH]c3c2C(c2cccs2)N(c2ccc(Br)cc2)C3=O)cc1 (centres undefined)
(101) CCN(CC)c1ccc(NC(=O)c2cc(OC)cc(OC)c2)c(C)c1
(102) COC(=O)c1ccc(S(=O)(=O)c2ccc(C(=O)OC)s2)s1
(103) CC(=O)c1ccc(OCCNS(=O)(=O)c2ccc(-n3cnnn3)cc2)cc1
Assay by compound,97,98,99,100,101,102,103
Vaccinia Venus,-24%,5%,-9%,-29%,?,-6%,-9%
VACV mCherry inh,i,i,-21%,-20%,?,-15%,i
